High-throughput results (PubChem)
PKD1 kinase inh: PKD1 (human) kinase inhibition; 200,000 tested, 0.056% active; Q15139; PKD1 kinase fluorescence polarization assay; inhibition, %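 (about 10 µM by stock and volumes)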;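 active = inhibition of 50% or more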;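 note: controls were vehicle for no effect and a reference inhibitor for full effect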
Target sequence (Q15139 whole entry, looked up): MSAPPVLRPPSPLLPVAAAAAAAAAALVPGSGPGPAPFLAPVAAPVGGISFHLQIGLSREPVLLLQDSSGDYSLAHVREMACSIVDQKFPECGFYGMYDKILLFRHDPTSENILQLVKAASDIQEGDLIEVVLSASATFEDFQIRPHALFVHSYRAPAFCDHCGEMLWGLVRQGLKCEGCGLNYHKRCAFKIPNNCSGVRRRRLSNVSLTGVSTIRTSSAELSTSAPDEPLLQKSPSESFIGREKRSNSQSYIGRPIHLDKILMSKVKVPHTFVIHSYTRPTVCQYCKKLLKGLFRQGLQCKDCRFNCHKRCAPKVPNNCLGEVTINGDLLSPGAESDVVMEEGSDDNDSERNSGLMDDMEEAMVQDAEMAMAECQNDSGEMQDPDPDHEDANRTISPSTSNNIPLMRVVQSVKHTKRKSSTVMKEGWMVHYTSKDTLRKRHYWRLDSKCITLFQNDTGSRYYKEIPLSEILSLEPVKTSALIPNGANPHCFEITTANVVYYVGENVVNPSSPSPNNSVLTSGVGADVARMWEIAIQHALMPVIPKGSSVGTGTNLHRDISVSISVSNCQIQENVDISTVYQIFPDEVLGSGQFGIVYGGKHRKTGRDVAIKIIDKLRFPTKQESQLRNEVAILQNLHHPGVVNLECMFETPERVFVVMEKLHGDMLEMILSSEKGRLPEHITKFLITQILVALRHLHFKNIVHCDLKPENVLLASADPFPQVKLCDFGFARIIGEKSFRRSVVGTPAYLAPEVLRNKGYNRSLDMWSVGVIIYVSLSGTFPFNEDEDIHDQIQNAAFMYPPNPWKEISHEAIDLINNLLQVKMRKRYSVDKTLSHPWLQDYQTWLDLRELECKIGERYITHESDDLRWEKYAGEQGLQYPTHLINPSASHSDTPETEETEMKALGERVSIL
Insulin prom inh: TRM-6 insulin promoter activity inhibition. TRM-6 cells (human fetal islet line), insulin promoter-eGFP reporter, imaging; reporter expression induced with tamoxifen. inhibition, % at 2 µM. 130,000 tested, 0.9% active. AID 1273;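 active = inhibition above the mean plus 3 SD, with well images judged a real hit on visual review, cut at about 60% in these data, passing the limit was not always enough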
RGS16-Gao: RGS16-Galphao interaction regulator (human) | O15492+P09471 | bead-based flow cytometry RGS16-Galphao binding, fluorescence; actives lie on both sides | binding response (% of control), % at 10 µM | 220,000 tested, 0.38% active;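 active = below 25% or above 175%, edge rows of some plates excepted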;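 note: Galphao activated by GDP with aluminum fluoride before binding; 100% = wells without compound and 0% = beads without RGS; some results beyond the cut were filed as inactive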
GALR2 agonist: agonists of human galanin receptor 2 (GALR2); 140,000 tested, 0.48% active; activation, %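 (tested at 5 µM)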; GALR2-expressing cells, agonist activation read-out; AID 803;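 active = above mean plus 3 SD of all compounds, about 5% in these data, not always enough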;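 note: 0% = vehicle buffer wells and 100% = reference agonist at full effect; tested in CHO reporter cells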
HSV replic up: HSV replication enhancement. AID 1956. maximum fold increase. 220,000 tested, 0.005% active. HSV replication augmentation in cells, fold increase;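 active = peak rise of 1.5-fold or more in the series; tested in PC3 cells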;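 note: first round at 10 µM; read as green reporter fluorescence; hits show the peak of a series up to 25 µM; 1 = signal of infected wells without compound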
Insulin prom inh cell count: also measured in Insulin prom inh; calls as there; normalized cell count, %; measured here: cell count, toxicity; reference of the scale not given here;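 cells exposed to compound for 48 h; stained nuclei by imaging scaled within each plate; lower means fewer cells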
HSV replic up primary fold: also measured in HSV replic up; calls as there; fold increase; compound at 10 µM; measured here: primary screen fold increase 10 uM; tested in PC3 cells;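 GFP signal in the first replicate; 1 = infected wells without compound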
* = called active by the depositor.

For Cc1occc1-c1nnc(SCC(=O)c2c(N)n(Cc3ccccc3)c(=O)n(C)c2=O)n1C the results were PKD1 kinase inh -5, Insulin prom inh 6, RGS16-Gao 108, GALR2 agonist -1.6, HSV replic up inactive, Insulin prom inh cell count 99 and HSV replic up primary fold 1.1.
Screening CCOC(=O)N/N=C1\CCS(=O)(=O)c2ccc(Cl)cc21 returned RGS16-Gao 98, HSV replic up inactive and HSV replic up primary fold 1.2.
For Cc1ccc(N2C(=O)C(CC(=O)Nc3cccc(F)c3)N(C3CC3)C2=O)cc1 (stereo unspecified) the results were PKD1 kinase inh 1, RGS16-Gao 96, HSV replic up inactive and HSV replic up primary fold 0.94.
Screening O=C(O)CC1S/C(=N/N=C/c2ccc([N+](=O)[O-])cc2)N(c2ccc(O)cc2)C1=O (stereo unspecified) returned PKD1 kinase inh 0, Insulin prom inh 8, RGS16-Gao 108, HSV replic up inactive, Insulin prom inh cell count 83 and HSV replic up primary fold 0.96.
Screening O=C(/C=C/c1ccc(F)cc1)Nc1ccc2[nH]c(=O)[nH]c2c1 returned RGS16-Gao 91, HSV replic up inactive and HSV replic up primary fold 0.86.
`CNC(=O)c1snnc1-c1ccccc1` gave PKD1 kinase inh 3, Insulin prom inh 57, RGS16-Gao 111, GALR2 agonist -2.9, HSV replic up inactive, Insulin prom inh cell count 67 and HSV replic up primary fold 0.96.
`CC1(C)CC(=O)C2=C(C1)OC(c1ccc(O)cc1)C(C#N)=C2N` (stereo unspecified) gave PKD1 kinase inh -13, Insulin prom inh 27, RGS16-Gao 79, GALR2 agonist -0.9, HSV replic up inactive, Insulin prom inh cell count 115 and HSV replic up primary fold 0.92.
O=C(Cn1c(=O)oc2ccccc21)N(Cc1ccccc1)C1CCS(=O)(=O)C1 (stereo unspecified) was read as PKD1 kinase inh 8, RGS16-Gao 99, GALR2 agonist -2.0, HSV replic up inactive and HSV replic up primary fold 0.9.
O=c1cnnc(N/N=C/C2CC=CCC2)[nH]1 (stereo unspecified) was read as PKD1 kinase inh 6, Insulin prom inh -7, RGS16-Gao 114 and Insulin prom inh cell count 66.
Screening NC(=O)N/N=C/c1ccc2cccc(OCc3ccccc3)c2n1 returned RGS16-Gao 97, HSV replic up inactive and HSV replic up primary fold 0.82.
Screening Cc1ccc(-n2ncc3c(NCC4CCCO4)ncnc32)c(C)c1 (stereo unspecified) returned PKD1 kinase inh -12, Insulin prom inh -319, RGS16-Gao 100, GALR2 agonist -1.2, HSV replic up inactive, Insulin prom inh cell count 54 and HSV replic up primary fold 1.
For CC(=O)Nc1ccc(S(=O)(=O)NCc2ccc3[nH]c(C)cc3c2)cc1 the results were PKD1 kinase inh 7, RGS16-Gao 103, GALR2 agonist -1.1, HSV replic up inactive and HSV replic up primary fold 1.
Screening Cc1ccc(C)c(OCC(=O)N2CCN(C(=O)c3ccco3)CC2)c1 returned PKD1 kinase inh -11, Insulin prom inh -18, RGS16-Gao 24*, GALR2 agonist 0.8, HSV replic up inactive, Insulin prom inh cell count 91 and HSV replic up primary fold 0.91.
`O=C(N/C(=C/C=C/c1ccccc1)C(=O)N1CCOCC1)c1ccccc1Br` gave PKD1 kinase inh -8, Insulin prom inh -31, RGS16-Gao 97, HSV replic up inactive, Insulin prom inh cell count 127 and HSV replic up primary fold 0.85.
`C/C(=N\NS(=O)(=O)c1ccc(C)c([N+](=O)[O-])c1)c1ccc2c(c1)OCO2` gave PKD1 kinase inh -5, Insulin prom inh 44, RGS16-Gao 103, HSV replic up inactive, Insulin prom inh cell count 70 and HSV replic up primary fold 0.95.
NC(=S)N/N=C/c1cccc(O)c1O was read as PKD1 kinase inh -5, RGS16-Gao 90, HSV replic up inactive and HSV replic up primary fold 1.4.
`C[C@@H]1NC(=O)[C@H](CCC(N)=O)NC(=O)c2cc([N+](=O)[O-])cc(I)c2NCC[C@@H](C(N)=O)NC1=O` gave PKD1 kinase inh -9, Insulin prom inh 36, RGS16-Gao 109, GALR2 agonist -1.0, HSV replic up inactive, Insulin prom inh cell count 108 and HSV replic up primary fold 0.81.
Screening COc1cc2c(cc1NC(=O)CSc1nnc(COc3ccc(Cl)cc3)n1C)oc1ccccc12 returned PKD1 kinase inh 5, Insulin prom inh -58, RGS16-Gao 100, GALR2 agonist -2.6, HSV replic up inactive, Insulin prom inh cell count 70 and HSV replic up primary fold 0.91.
`CCn1nc(C)cc1Nc1ccccc1` gave PKD1 kinase inh 0, Insulin prom inh -421, RGS16-Gao 97, GALR2 agonist -1.4, HSV replic up inactive, Insulin prom inh cell count 96 and HSV replic up primary fold 0.87.
`COc1ccc(C2/C(=C(/O)c3ccccc3)C(=O)C(=O)N2CC(C)O)c(OC)c1` (stereo unspecified) gave PKD1 kinase inh -3, Insulin prom inh -57, RGS16-Gao 95, GALR2 agonist 0.0, HSV replic up inactive, Insulin prom inh cell count 59 and HSV replic up primary fold 0.95.
O=S(=O)(NCc1ccccc1)c1cccc2nsnc12 was read as RGS16-Gao 95, HSV replic up inactive and HSV replic up primary fold 0.92.
Screening CC(C)NC(=O)CN1CCC(c2ccccc2)C(O)C1 (stereo unspecified) returned PKD1 kinase inh -3, Insulin prom inh -93, RGS16-Gao 98, HSV replic up inactive, Insulin prom inh cell count 126 and HSV replic up primary fold 1.1.
COc1cc(CN/C(C)=C(\C#N)C(N)=O)cc(OC)c1OC was read as PKD1 kinase inh -3, RGS16-Gao 102, GALR2 agonist -1.1, HSV replic up inactive and HSV replic up primary fold 0.96.
Cc1ccc(Cl)cc1N1CCN(C(=O)Cc2c(C(=O)O)[nH]c3ccccc23)CC1 was read as PKD1 kinase inh 5, Insulin prom inh 21, RGS16-Gao 105, GALR2 agonist -0.5, HSV replic up inactive, Insulin prom inh cell count 120 and HSV replic up primary fold 0.95.
Cc1cccn2c(=O)c3cc(C(=O)N4CCCc5ccccc54)n(C)c3nc12 was read as PKD1 kinase inh -11, Insulin prom inh 6, GALR2 agonist -2.2 and Insulin prom inh cell count 184.
`CC(=O)Nc1ccc(NC(=O)COC(=O)CCc2nc3ccccc3s2)cc1` gave PKD1 kinase inh -4, Insulin prom inh 0, RGS16-Gao 100, HSV replic up inactive, Insulin prom inh cell count 100 and HSV replic up primary fold 0.91.
Screening Cc1ccc(S(=O)(=O)NC(=NCC(=O)O)c2ccc(F)cc2)cc1 returned PKD1 kinase inh -5, Insulin prom inh -46, RGS16-Gao 102, GALR2 agonist 7.1, HSV replic up inactive, Insulin prom inh cell count 81 and HSV replic up primary fold 0.89.
For CC(=O)C1C(c2cccc(F)c2)c2c(n[nH]c2C)CC1(C)O (stereo unspecified) the results were RGS16-Gao 102, HSV replic up inactive and HSV replic up primary fold 0.89.
For Cc1nnc(Sc2nc3ccccc3o2)c2ccccc12 the results were PKD1 kinase inh 6, Insulin prom inh 12, RGS16-Gao 57, GALR2 agonist -2.2, HSV replic up inactive, Insulin prom inh cell count 147 and HSV replic up primary fold 0.99.
`CC(=O)SCC[N+](C)(C)C` gave RGS16-Gao 60, HSV replic up inactive and HSV replic up primary fold 0.97.
For Cc1[nH]c2ccccc2c(=O)c1CN(C)Cc1ccccc1 the results were PKD1 kinase inh 0, Insulin prom inh -26, RGS16-Gao 100, GALR2 agonist -4.0, HSV replic up inactive, Insulin prom inh cell count 145 and HSV replic up primary fold 1.
Screening Cc1nc2c(C)cccc2c2c1CCN2c1ccccc1F returned RGS16-Gao 96, HSV replic up inactive and HSV replic up primary fold 0.89.
For CCOC(=O)CN(C(=O)CNC(=O)c1ccco1)C(C(=O)NC1CCCCC1)c1cccc(OC)c1 (stereo unspecified) the results were RGS16-Gao 47, HSV replic up inactive and HSV replic up primary fold 0.99.
CCCCC(=O)Nc1ccc(C(=O)Nc2ccc3c(c2)OCO3)cc1 was read as PKD1 kinase inh -2, Insulin prom inh -475, RGS16-Gao 101, GALR2 agonist -0.6, HSV replic up inactive, Insulin prom inh cell count 46 and HSV replic up primary fold 0.94.
CCO[C@H]1OC(C(N)=O)=C[C@@H](c2ccccc2)[C@@H]1CCCO was read as PKD1 kinase inh -2, RGS16-Gao 100, HSV replic up inactive and HSV replic up primary fold 0.9.
`COc1c(C)cc(Br)cc1C(=O)Nc1ccc(C)cc1[N+](=O)[O-]` gave PKD1 kinase inh -4, RGS16-Gao 108, GALR2 agonist -1.1, HSV replic up inactive and HSV replic up primary fold 0.97.
N#CC1=C(SCC(=O)c2ccc(Cl)cc2)NC2=C(C(=O)CCC2)C1c1ccco1 (stereo unspecified) was read as RGS16-Gao 101, HSV replic up inactive and HSV replic up primary fold 0.67.
For Cn1cc(C(=O)NC2CCCCC2)c(=O)c2cc(S(=O)(=O)N3CCCC3)ccc21 the results were PKD1 kinase inh 0, RGS16-Gao 101, GALR2 agonist 0.7, HSV replic up inactive and HSV replic up primary fold 0.72.
For O=C(CCS(=O)(=O)Cc1ccc(Cl)cc1)NCCc1ccccc1 the results were PKD1 kinase inh 0, Insulin prom inh 43, RGS16-Gao 99, HSV replic up inactive, Insulin prom inh cell count 106 and HSV replic up primary fold 0.89.
Screening CCCCN(CCCC)C(=O)CCS(=O)(=O)c1ccc2c(c1)n(C)c(=O)c(=O)n2C returned PKD1 kinase inh 6, Insulin prom inh -100, RGS16-Gao 114, GALR2 agonist 0.0, HSV replic up inactive, Insulin prom inh cell count 95 and HSV replic up primary fold 0.9.
Screening O=C(CCS(=O)(=O)c1ccc(Br)s1)NCc1cccs1 returned PKD1 kinase inh 3, Insulin prom inh 25, RGS16-Gao 101, GALR2 agonist -2.5, HSV replic up inactive, Insulin prom inh cell count 78 and HSV replic up primary fold 0.72.
Screening CN(C)CCCN1C(=O)C(O)=C(C(=O)c2cc3ccccc3o2)C1c1ccccc1 (stereo unspecified) returned PKD1 kinase inh -8, RGS16-Gao 167 and GALR2 agonist -1.4.
For O=C(CCn1cccc1)NCc1ccc(Cl)cc1 the results were PKD1 kinase inh -9, Insulin prom inh -127, RGS16-Gao 106, GALR2 agonist -0.9, HSV replic up inactive, Insulin prom inh cell count 56 and HSV replic up primary fold 0.98.
For COc1ccc(CCn2c(N)c(C(=O)NCc3ccco3)c3nc4ccccc4nc32)cc1 the results were PKD1 kinase inh -5, Insulin prom inh -29, RGS16-Gao 92, GALR2 agonist 1.0, HSV replic up inactive, Insulin prom inh cell count 107 and HSV replic up primary fold 0.77.
Screening CCCNC(=O)c1c(N)n(-c2ccc(S(N)(=O)=O)cc2)c2nc3ccccc3nc12 returned PKD1 kinase inh 2, Insulin prom inh -39, RGS16-Gao 120, GALR2 agonist 35* and Insulin prom inh cell count 103.
For COc1ccccc1NC(=O)C1=C(C)NC(=O)NC1c1ccc(C)cc1 (stereo unspecified) the results were PKD1 kinase inh -6, Insulin prom inh 30, RGS16-Gao 101, GALR2 agonist -1.1, HSV replic up inactive, Insulin prom inh cell count 58 and HSV replic up primary fold 0.91.
Cn1nc(C(=O)NNC(=O)COc2ccccc2)c2ccccc2c1=O was read as PKD1 kinase inh -5, Insulin prom inh -14, RGS16-Gao 102, GALR2 agonist 0.0, HSV replic up inactive, Insulin prom inh cell count 128 and HSV replic up primary fold 0.88.
Screening CC(C)C(C)NC(=O)CN1C(=O)NC2(CCCCCC2)C1=O (stereo unspecified) returned PKD1 kinase inh 4, RGS16-Gao 94, HSV replic up inactive and HSV replic up primary fold 1.4.

Gathered by group, those above with a Cl atom
Screening CCOC(=O)N/N=C1\CCS(=O)(=O)c2ccc(Cl)cc21 returned RGS16-Gao 98, HSV replic up inactive and HSV replic up primary fold 1.2.
Screening COc1cc2c(cc1NC(=O)CSc1nnc(COc3ccc(Cl)cc3)n1C)oc1ccccc12 returned PKD1 kinase inh 5, Insulin prom inh -58, RGS16-Gao 100, GALR2 agonist -2.6, HSV replic up inactive, Insulin prom inh cell count 70 and HSV replic up primary fold 0.91.
Cc1ccc(Cl)cc1N1CCN(C(=O)Cc2c(C(=O)O)[nH]c3ccccc23)CC1 was read as PKD1 kinase inh 5, Insulin prom inh 21, RGS16-Gao 105, GALR2 agonist -0.5, HSV replic up inactive, Insulin prom inh cell count 120 and HSV replic up primary fold 0.95.
N#CC1=C(SCC(=O)c2ccc(Cl)cc2)NC2=C(C(=O)CCC2)C1c1ccco1 (stereo unspecified) was read as RGS16-Gao 101, HSV replic up inactive and HSV replic up primary fold 0.67.
For O=C(CCS(=O)(=O)Cc1ccc(Cl)cc1)NCCc1ccccc1 the results were PKD1 kinase inh 0, Insulin prom inh 43, RGS16-Gao 99, HSV replic up inactive, Insulin prom inh cell count 106 and HSV replic up primary fold 0.89.
For O=C(CCn1cccc1)NCc1ccc(Cl)cc1 the results were PKD1 kinase inh -9, Insulin prom inh -127, RGS16-Gao 106, GALR2 agonist -0.9, HSV replic up inactive, Insulin prom inh cell count 56 and HSV replic up primary fold 0.98.
